# High-throughput results deposited in PubChem BioAssay by several laboratories.
# GALR2 agonist: GALR2 receptor agonists, primary screen, cell-based; GALR2-expressing cells, agonist activation read-out; activation, %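 (tested at 5 µM)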; hit rate 0.48% among 140,000;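 active = above mean plus 3 SD of all compounds, about 5% in these data, not always enough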;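 note: 0% = vehicle buffer wells and 100% = reference agonist at full effect; tested in CHO reporter cells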
# Target sequence (O43603 whole entry, looked up): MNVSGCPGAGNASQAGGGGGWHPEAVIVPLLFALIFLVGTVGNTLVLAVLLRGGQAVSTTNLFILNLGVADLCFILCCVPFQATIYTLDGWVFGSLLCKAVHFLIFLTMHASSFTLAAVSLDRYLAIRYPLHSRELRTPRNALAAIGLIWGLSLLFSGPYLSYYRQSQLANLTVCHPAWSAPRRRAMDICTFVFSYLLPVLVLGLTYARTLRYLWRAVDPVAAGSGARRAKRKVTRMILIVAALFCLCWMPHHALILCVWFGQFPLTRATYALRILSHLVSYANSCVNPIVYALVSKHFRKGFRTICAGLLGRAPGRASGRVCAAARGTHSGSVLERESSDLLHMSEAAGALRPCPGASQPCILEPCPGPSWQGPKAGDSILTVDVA
# Insulin prom inh: inhibitors of insulin promoter-driven GFP, primary screen, imaging, TRM-6 cells (human fetal islet line), eGFP reporter, cell count | reporter expression induced with tamoxifen | AID 1273, 2008 | inhibition, % at 2 µM | hit rate 0.9% among 130,000;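 active = inhibition above the mean plus 3 SD, with well images judged a real hit on visual review, cut at about 60% in these data, passing the limit was not always enough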
# PKD1 inh: inhibitors of human PKD1 kinase, biochemical, fluorescence polarization. inhibition, %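 (about 10 µM by stock and volumes)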. PKD1 kinase fluorescence polarization assay. AID 797, 2007. hit rate 0.056% among 200,000;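 active = inhibition of 50% or more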;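 note: controls were vehicle for no effect and a reference inhibitor for full effect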
# RGS16-Gao HTS: modulators of RGS16 binding to Galphao, primary screen, biochemical, human proteins, multiplexed bead flow cytometry | hit rate 0.38% among 220,000 | binding response (% of control), % at 10 µM | bead-based flow cytometry RGS16-Galphao binding, fluorescence; actives lie on both sides;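 active = below 25% or above 175%, edge rows of some plates excepted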;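 note: Galphao activated by GDP with aluminum fluoride before binding; 100% = wells without compound and 0% = beads without RGS; some results beyond the cut were filed as inactive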
# HSV augment: enhancers of HSV replication in host cells, fold increase, host cell viability. HSV replication augmentation in cells. maximum fold increase. hit rate 0.005% among 220,000;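 active = peak rise of 1.5-fold or more in the series; tested in PC3 cells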;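 note: first round at 10 µM; read as green reporter fluorescence; hits show the peak of a series up to 25 µM; 1 = signal of infected wells without compound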
# Insulin prom inh cell count: also measured in Insulin prom inh; calls as there; normalized cell count, %; measured here: cell count, toxicity; reference of the scale not given here;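 cells exposed to compound for 48 h; stained nuclei by imaging scaled within each plate; lower means fewer cells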
# HSV augment primary fold: second read-out of HSV augment, no call of its own (marks repeat the call); fold increase; compound at 10 µM; measured here: primary screen fold increase 10 uM; tested in PC3 cells;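 GFP signal in the first replicate; 1 = infected wells without compound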
# An asterisk follows results filed as active; i = inactive; · = not tested or not shown; & = joins results of further samples.
# Screens by letter – A = GALR2 agonist; B = Insulin prom inh; C = Insulin prom inh cell count; D = PKD1 inh; E = RGS16-Gao HTS; F = HSV augment; G = HSV augment primary fold
> CCCC(=O)O[C@]1(C(=O)CCl)[C@@H](C)C[C@H]2[C@@H]3CCC4=CC(=O)C=C[C@]4(C)[C@@]3(F)C(=O)C[C@@]21C
  A = 3.0 | B = 31.8 | C = 99.6 | D = -10.3 | E = 93.4 | F = i | G = 0.7
> COc1ccc(C(=O)c2ccccc2)c(O)c1
  A = -0.4 | B = -21.0 | C = 124.3 | D = -11.4 | E = 110.2 | F = i | G = 0.84
> N=c1nc(N2CCCCC2)cc(N)n1O
  A = -1.6 | B = 9.1 | C = 58.8 | D = 0.3 | E = 99.1 | F = i | G = 0.92&0.79
> CCN(CC)CC1CCCCN1CC(=O)N1c2ccccc2C(=O)Nc2cccnc21 (stereo not given)
  A = · | B = · | C = · | D = · | E = 101.6 | F = i | G = 0.95
> CCCOc1ccc2nc(NC(=O)OC)[nH]c2c1
  A = -0.6 | B = -304.8 | C = 5.8 | D = -1.4 | E = 118.9 | F = · | G = ·
> Cc1scc2c1N(C(=O)CN1CCN(C)CC1)c1ccccc1NC2=O
  A = · | B = 13.3 | C = 92.8 | D = -3.6 | E = 103.7 | F = i | G = 0.875
> O=C(O)Cc1cn(-c2ccccc2)nc1-c1ccc(Cl)cc1
  A = · | B = -77.8 | C = 141.4 | D = -3.9 | E = 100.6 | F = i | G = 0.98
> COc1ccc(-c2oc3c(CC=C(C)C)c(O[C@@H]4O[C@H](CO)[C@@H](O)[C@H](O)[C@H]4O)cc(O)c3c(=O)c2O[C@@H]2O[C@@H](C)[C@H](O)[C@@H](O)[C@H]2O)cc1
  A = · | B = · | C = · | D = · | E = 96.9 | F = i | G = 1.05
> CCN(CCCCOC(=O)c1ccc(OC)c(OC)c1)C(C)Cc1ccc(OC)cc1 (stereo not given)
  A = -0.3 | B = -9.5 | C = 92.7 | D = -12.6 | E = 102.4 | F = i | G = 0.63
> CC(C)NNC(=O)c1ccncc1
  A = -1.1 | B = -22.7 | C = 95.5 | D = -19.0 | E = 102.2 | F = i | G = 0.95
> CN(C)c1ccc2nc3ccc(=[N+](C)C)cc-3sc2c1
  A = · | B = -105.9 | C = 42.1 | D = 0.3 | E = 96.8 | F = i | G = 0.74
> CCCCCCCCCCCCCCCC(O)C(N)CO (stereo not given)
  A = -0.7 | B = -59.1 | C = 71.4 | D = -9.7 | E = 63.2 | F = i | G = 0.66
> O=C(c1ccccn1)N(Cc1cccs1)C1(C(=O)NC2CCCCC2)CCCCC1
  A = · | B = -136.4 | C = 72.6 | D = -10.6 | E = 98.8 | F = i | G = 1.12
> Nc1c2ccccc2nc2ccccc12
  A = · | B = · | C = · | D = · | E = 106.9 | F = i | G = 0.55
> Cc1c(C)n(Cc2ccccc2)c2ccc(C(=O)OCCN(C)C)cc12
  A = · | B = 13.3 | C = 135.2 | D = 3.3 | E = 101.6 | F = i | G = 0.82
> CN(C)CCCSc1ccccc1NC(=O)/C=C/c1ccccc1
  A = · | B = · | C = · | D = · | E = 104.9 | F = i | G = 0.74
> CC(=O)Oc1ccc2c(C)cc(=O)oc2c1
  A = 1.7 | B = 18.3 | C = 116.0 | D = 3.4 | E = 29.5 | F = i | G = 1.02
> COc1cc(N)c(Cl)cc1C(=O)N[C@@H]1CCN(CCCOc2ccc(F)cc2)C[C@@H]1OC
  A = · | B = · | C = · | D = · | E = 98.9 | F = i | G = 0.77
> CCCC(=O)O[C@]1(C(=O)COC(C)=O)CC[C@H]2[C@@H]3C[C@H](F)C4=CC(=O)C=C[C@]4(C)[C@@]3(F)[C@@H](O)C[C@@]21C
  A = 2.9 | B = -18.2 | C = 82.9 | D = -0.2 | E = 103.2 | F = i | G = 0.78
> CC1(C)O[C@@H]2C[C@H]3[C@@H]4C[C@H](F)C5=CC(=O)C=C[C@]5(C)[C@@]4(F)[C@@H](O)C[C@]3(C)[C@]2(C(=O)CO)O1
  A = 1.4 | B = -19.1 | C = 81.5 | D = 1.1 | E = 138.0 | F = i | G = 0.97
> CC(C)(C)NCC(O)COc1cccc2c1C[C@H](O)[C@H](O)C2 (stereo not given in full)
  A = -2.7 | B = 14.3 | C = 118.5 | D = -8.9 | E = 95.0 | F = i | G = 0.95
> COc1cc(C2Oc3cc(C4Oc5cc(O)cc(O)c5C(=O)C4O)ccc3OC2CO)ccc1O (stereo not given)
  A = -1.2 | B = 23.8 | C = 59.2 | D = -2.6 | E = 41.2 | F = i | G = 0.82
> CCCCN(CCCC)CCCOC(=O)c1ccc(N)cc1
  A = -1.0 | B = -4.8 | C = 142.1 | D = -9.2 | E = 106.6 | F = i | G = 0.76

# 7 compounds out of the list, sorted by molecular weight, falling.
# Screens by letter – A = GALR2 agonist; B = Insulin prom inh; C = Insulin prom inh cell count; D = PKD1 inh; E = RGS16-Gao HTS; F = HSV augment; G = HSV augment primary fold
> CCCC(=O)O[C@]1(C(=O)CCl)[C@@H](C)C[C@H]2[C@@H]3CCC4=CC(=O)C=C[C@]4(C)[C@@]3(F)C(=O)C[C@@]21C
  A = 3.0 | B = 31.8 | C = 99.6 | D = -10.3 | E = 93.4 | F = i | G = 0.7
> CCN(CCCCOC(=O)c1ccc(OC)c(OC)c1)C(C)Cc1ccc(OC)cc1 (stereo not given)
  A = -0.3 | B = -9.5 | C = 92.7 | D = -12.6 | E = 102.4 | F = i | G = 0.63
> Cc1scc2c1N(C(=O)CN1CCN(C)CC1)c1ccccc1NC2=O
  A = · | B = 13.3 | C = 92.8 | D = -3.6 | E = 103.7 | F = i | G = 0.875
> Cc1c(C)n(Cc2ccccc2)c2ccc(C(=O)OCCN(C)C)cc12
  A = · | B = 13.3 | C = 135.2 | D = 3.3 | E = 101.6 | F = i | G = 0.82
> CCCCN(CCCC)CCCOC(=O)c1ccc(N)cc1
  A = -1.0 | B = -4.8 | C = 142.1 | D = -9.2 | E = 106.6 | F = i | G = 0.76
> CN(C)c1ccc2nc3ccc(=[N+](C)C)cc-3sc2c1
  A = · | B = -105.9 | C = 42.1 | D = 0.3 | E = 96.8 | F = i | G = 0.74
> CC(=O)Oc1ccc2c(C)cc(=O)oc2c1
  A = 1.7 | B = 18.3 | C = 116.0 | D = 3.4 | E = 29.5 | F = i | G = 1.02

# Whole records as entered above.
# `CC(C)NNC(=O)c1ccncc1` is entered as GALR2 agonist = -1.1; Insulin prom inh = -22.7; Insulin prom inh cell count = 95.5; PKD1 inh = -19.0; RGS16-Gao HTS = 102.2; HSV augment = i; HSV augment primary fold = 0.95
# `O=C(O)Cc1cn(-c2ccccc2)nc1-c1ccc(Cl)cc1` is entered as GALR2 agonist = ·; Insulin prom inh = -77.8; Insulin prom inh cell count = 141.4; PKD1 inh = -3.9; RGS16-Gao HTS = 100.6; HSV augment = i; HSV augment primary fold = 0.98

# A portion of the library; rates above refer to the full screens.
